Sfp inh: inhibitors of Bacillus subtilis Sfp phosphopantetheinyl transferase. Biochemical Sfp PPTase activity, qHTS. AID 1490. Potency, µM, for the others: max response, negative = inhibition, usual class: inhibitors. actives 3.5% (n = 310,000). Q9F4F7; active means well fitted inhibition curve with a large enough effect; inconclusive means small, poorly fitted or top-dose-only effect, or another doubt; inactive means no such curve, though single readings can be large or run the other way;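 further: the enzyme is Sfp with the accession as filed and its product quenches rhodamine fluorescence; potency means the concentration at half of the fitted maximal effect; 0% = enzyme reaction without inhibitor and -100% = no enzyme wells; top concentration of the series not given in the record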
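With Hepes-Na pH 7.6 buffer containing 10 mM MgCl2, Sfp (15 nM) modified BHQ-2-YbbR (12.5 uM) using rhodamine-CoA (5 uM). Two reads 30 minutes apart at 525/598 nm yielded each well's rate.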
TRPML1 agonist: agonists of human TRPML1 channel; Q9GZU1; TRPML1-expressing cells, Ca2+ dye fluorescence, FDSS; host cell line not named in the record; reference of the full effect not given here; activation, % (test concentration not listed); actives 0.12% (n = 410,000); AID 624414; in the data active = activation above about 50%; inconclusive = about 30% to 50%; inactive = below about 30%; further: 0% is about no effect; the text of the record puts the active cut at 80%
Target sequence (Q9GZU1 whole entry, looked up): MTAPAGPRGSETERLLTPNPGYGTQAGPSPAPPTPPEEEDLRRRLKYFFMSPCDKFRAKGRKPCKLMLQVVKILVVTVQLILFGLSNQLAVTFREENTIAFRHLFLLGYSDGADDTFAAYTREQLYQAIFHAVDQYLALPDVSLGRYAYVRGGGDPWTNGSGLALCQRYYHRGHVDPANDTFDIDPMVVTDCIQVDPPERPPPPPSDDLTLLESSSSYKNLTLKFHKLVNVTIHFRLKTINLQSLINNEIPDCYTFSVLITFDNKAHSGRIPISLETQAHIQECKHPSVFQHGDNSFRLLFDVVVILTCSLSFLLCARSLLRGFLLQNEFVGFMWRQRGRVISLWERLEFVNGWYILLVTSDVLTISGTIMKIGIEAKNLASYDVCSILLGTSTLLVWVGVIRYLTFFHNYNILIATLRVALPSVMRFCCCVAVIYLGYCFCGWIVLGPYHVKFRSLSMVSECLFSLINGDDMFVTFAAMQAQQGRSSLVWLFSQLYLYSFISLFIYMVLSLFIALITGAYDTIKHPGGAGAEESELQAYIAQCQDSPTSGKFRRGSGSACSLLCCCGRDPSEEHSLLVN
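Cells: TRPML1-DL, 1X Tet inducer, ~16 h at 37 degrees C/5% CO2. Dye: ABD Ca8 no-wash + quencher, 45-90 min RT. Read: 10 s baseline, compound add, 110 s agonist phase; 54-4 EC80 (4uM final), 110 s antagonist phase.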
TRPV1 PAM: human TRPV1 potentiation | actives 0.02% (n = 320,000) | potentiation, % at 8.33 µM | AID 540277 | TRPV1-expressing cells, Fluo-8 calcium influx, capsaicin EC20 potentiation; host cell line not named in the record; control for the full effect not named in the record; active means potentiation above 80%; inconclusive means 30% to 80%; inactive means below 30%; further: 0% is about no effect
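Cells expressing TRPV1 were dye-loaded with Fluo-8 and read kinetically: 10 s baseline, 3 min after compound (agonist portion), then 2 min after EC20 capsaicin (allosteric enhancer portion). Calcium-bound dye fluorescence at 480/520 nm.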
PINK1 modulator: modulators of PINK1 expression. PINK1 immunofluorescence, high-content cytometry, 24 h. actives 0.2% (n = 410,000). Potency, µM (titrated, usually from 76.6 µM), without a hit: at the highest dose activation (PINK1 increase), usual class: activators; active = well fitted activation curve with a large enough effect; inconclusive = small, poorly fitted or top-dose-only effect; inactive = flat fitted curve, though single readings scatter; cell line not stated here;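 further: potency means the concentration at half of the fitted maximal effect; % of control where 0% means no effect; nearly all actives have a fitted effect of over 65% in size; a mitochondrial uncoupler was the plate control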
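Decision-based qHTS: stable cells, 24 h exposure to five compound concentrations, CCCP as control. Fixed cells stained for PINK1 plus nuclear, mitochondrial and cell markers, cytometer read.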
Menin-MLL FL inh: menin-MLL binding inhibition, fluorescein peptide; Fluorescence polarization, fluorescein-MLL peptide displacement from menin; FP activity change, % at 61.4 µM; 290,000 tested, under 10 active; AID 1766; inconclusive = falling polarisation curve, or a change in total fluorescence; inactive = total fluorescence flat and polarisation flat or rising; no compound was filed as active; the % refers to the polarisation; negative = inhibition;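 further: % of control where 0% means no effect; inhibitors lower the polarisation; unlabelled MLL peptide was the positive control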
TRPML1 blocker: inhibitors of human TRPML1 channel; AID 624415; actives 0.02% (n = 390,000); activity change, negative = inhibition, % (test concentration not listed); TRPML1-inducible cells, Ca2+ dye fluorescence, FDSS; hits give low values; inhibition of EC80 agonist-evoked calcium signal; in the data active means activity change below about -50%; inconclusive means about -30% to -50%; inactive means above about -30%;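 further: stimulus is agonist 54-4 at its EC80 concentration; on the % scale 0 is the no-effect control and ±100 the full control effect; compound concentration not given in the record; the text of the record puts the active cut at -80%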
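Tet-induced TRPML1-DL cells loaded with Ca8 no-wash calcium dye were read kinetically on FDSS. Compound addition was followed by EC80 agonist 54-4 (4 uM final); inhibition was read over 110 s.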
ClpP mod: qHTS Assay for Activators of ClpP | actives 1.9% (n = 340,000) | purified B. subtilis ClpP, FRET peptide cleavage, 20 min | ATP-dependent Clp protease proteolytic subunit (Bacillus subtilis (strain 168)), P80244 | Potency, µM (series often up to 57.5 µM), inactives show at the top dose activity change, negative = active; active = well fitted falling curve with a large enough effect; inconclusive = small, poorly fitted or top-dose-only effect; inactive = no such curve, though single readings can be large or run the other way; further: potency means the concentration at half of the fitted maximal effect; the source files actives as falling curves though it sought activators and does not explain the sign; nearly all actives have a fitted effect of over 65% in size; many hits overshoot -100%
Target sequence (P80244 whole entry, looked up): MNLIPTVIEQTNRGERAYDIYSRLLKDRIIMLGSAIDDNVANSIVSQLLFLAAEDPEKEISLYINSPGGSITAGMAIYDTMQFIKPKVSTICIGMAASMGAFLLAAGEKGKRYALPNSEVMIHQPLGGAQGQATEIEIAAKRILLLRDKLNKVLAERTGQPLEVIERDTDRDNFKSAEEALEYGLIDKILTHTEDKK
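Buffer: 100 mM Tris/HCl pH8, 100 mM KCl, 0.05% low protease BSA, 2.5% glycerol, 0.01% Tween-20. ClpP 10 microg/mL final; 20 min RT; delta FRET normalized to ADEP and DMSO controls.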
* hit, by the source's call; ? = inconclusive; . = not tested or not shown; & = joins results of further samples; [ ] = dose if it differs, or a comment. This is a random part of the collection. About 4.4% of those tested had a hit in this group.

SMILES	Sfp inh	TRPML1 agonist	TRPV1 PAM	PINK1 modulator	Menin-MLL FL inh	TRPML1 blocker	ClpP mod
C=CCSc1nnc(NC(=O)Cc2ccc(OC)c(OC)c2)s1	9%	0.8	-10	-0.4%	-0.1	7	.
CCN(Cc1ccccc1)c1ccc(/C=N/NC(=S)NC(C)C)cc1	18%	1.4	3	1.7%	7.2	-2	?
CC(=O)c1ccc(N2CCN(S(=O)(=O)c3c(C)[nH]c(C)c3C(=O)N3CCCCC3)CC2)cc1	8%	-0.2	0	3.2%	-1.2	-15	-15%
CC(=O)Oc1cc(OC(C)=O)c2c(C)cc(=O)oc2c1	-1%	-0.6	18	-1.0%	-2.0	-22	74%
O=[N+]([O-])c1ccccc1S(=O)(=O)N1CCN(Cc2ccccc2)CC1	-3%	-0.3	-5	1.9%	-2.9	26	-4.3%
O=C(c1ccccn1)c1cc2ccccc2n1S(=O)(=O)c1ccccc1	?	1.6	-18	2.4%	.	6	-0.7%
Cn1cccc1/C=N/NC(=O)c1ccccn1	79µM*	.	?	1.4%	3.3	.	-1.2%
CSc1nc(Cl)c(C#N)c(-c2ccc(C)cc2)n1	12%	0.0	-11	.	4.9	7	-0.8%
COc1cc2c(cc1OC)[C@@H](NC(=O)C(C)C)[C@H](O)C2	.	-0.5	.	-0.8%	.	-8	0.1%
CCOCC(=O)Nc1ccc(S(=O)(=O)Nc2nccs2)cc1	10%	0.4	-5	0.8%	3.4	10	-1.3%
CSc1ncccc1C(=O)OCC(=O)Nc1cccc(S(=O)(=O)N2CCOCC2)c1	.	-0.7	.	5.8%	.	-1	.
COC(=O)c1ccc(NS(=O)(=O)c2cc3c4c(c2)C(C)C(=O)N4CCC3)cc1 (configuration not stated)	.	-0.5	0	2.8%	.	-1	4.6%
CCS(=O)(=O)c1ccc(-c2csc(-c3ccccc3Cl)n2)c(Cl)c1Cl	-27%	0.4	8	13%	3.3	3	-16%
CC(C)NC(=O)COC(=O)c1cccc(NS(=O)(=O)/C=C/c2ccccc2)c1	12%	-0.2	7	-1.6%	0.1	-4	-2.5%
Cc1c(NC(=O)CNCc2ccc3c(c2)OCO3)c(=O)n(-c2ccccc2)n1C	?	-0.3	9	0.7%	-2.4	21	.
CCc1sc(C(=O)NCCCN2CCCC2=O)cc1Br	.	0.4	.	2.8%	.	-6	0.8%
CSc1ccc(C#N)cc1NC(=O)c1cccnc1Cl	24%	-0.9	-2	0.4%	0.3	28	.
CCOc1ccc(CCNC(=O)C2CCN(S(=O)(=O)N3CC(C)CC(C)C3)CC2)cc1OCC (configuration not stated)	18%	-0.4	-3	2.4%	-3.8	-12	0.9%
COc1ccc(/C=C/C(=O)OCC(=O)NCCc2ccccc2)c(OC)c1	.	-0.7	.	-0.5%	.	3	.
Cc1ccccc1C(=O)NCCN=C1NS(=O)(=O)c2ccccc21	11%	-0.4	.	0.1%	-1.8	-8	1.1%
CCCc1cc(NCCCN2CCOCC2)n2c(nc3ccccc32)c1C#N	-1%	-0.2	-34	-0.4%	-3.0	24	13%
Cc1ccccc1CN1CCN(C(=O)[C@H]2O[C@@H](n3cnc4c(N)ncnc43)[C@H](O)[C@@H]2O)CC1	.	-0.1	.	0.1%	.	-4	-2.0%
CCN(CC)C(=O)CC(c1ccc(OC)cc1)c1c(O)cc(OC)cc1OC (configuration not stated)	-2%	1.9&1.8	-2	-0.1%	-5.6&5.8	-7&-22	-10%
O=C(O)c1cc(-c2cccc([N+](=O)[O-])c2)nc2ccccc12	11%	2.0	6	-1.1%	1.7	6	.

Next part; the last four above are carried over.
SMILES	Sfp inh	TRPML1 agonist	TRPV1 PAM	PINK1 modulator	Menin-MLL FL inh	TRPML1 blocker	ClpP mod
CCCc1cc(NCCCN2CCOCC2)n2c(nc3ccccc32)c1C#N	-1%	-0.2	-34	-0.4%	-3.0	24	13%
Cc1ccccc1CN1CCN(C(=O)[C@H]2O[C@@H](n3cnc4c(N)ncnc43)[C@H](O)[C@@H]2O)CC1	.	-0.1	.	0.1%	.	-4	-2.0%
CCN(CC)C(=O)CC(c1ccc(OC)cc1)c1c(O)cc(OC)cc1OC (configuration not stated)	-2%	1.9&1.8	-2	-0.1%	-5.6&5.8	-7&-22	-10%
O=C(O)c1cc(-c2cccc([N+](=O)[O-])c2)nc2ccccc12	11%	2.0	6	-1.1%	1.7	6	.
CCCN1CCN(C(=O)Cn2ncc3ccccc32)CC1	14%	-0.4	?	0.7%	3.3	-7	-1.1%
CC(=O)c1cccc(NC(=O)COC(=O)c2ccc3c(c2)OCCO3)c1	15%	-1.4	-13	-0.4%	-1.5	-18	-0.4%
COc1ccc(CN2CCN(Cc3ccco3)CC2)cc1	?	-1.3	7	2.0%	0.0	-19	0.9%
CN1C(=O)N(C)C2(c3ccccc3)Nn3c(s/c(=C/c4ccccc4)c3=O)=NC12c1ccccc1 (configuration not stated)	22%	-0.7	-14	-0.2%	4.0	4	-2.8%
CC(=O)NC1=NN(C(C)=O)C2(S1)C(=O)N(C(C)C)c1ccc(C)cc12 (configuration not stated)	0%	0.6	8	-6.0%[38.3 µM]	?	26	-1.7%
O=C1CN(C(=O)c2c(F)cccc2F)C(c2ccccc2)c2cc(Br)ccc2N1 (configuration not stated)	-10%	4.0	-11	-2.9%	1.2	-7	-6.2%
Cc1ccc(S(=O)(=O)N2CCC(C(=O)OCC(=O)NCc3ccco3)CC2)cc1C	.	2.6	19	0.0%	.	14	.
Cc1ccc(C)c(Cn2c(CCCNC(=O)C3CCCCC3)nc3ccccc32)c1	.	2.6	.	0.0%	.	23	0.4%
COc1ccc(NC(C)=O)cc1NC(=O)c1cccc(C(F)(F)F)c1	10%	0.1	1	0.5%	-2.8	13	.
COc1ccc(CNC(=O)COCc2cc(-c3cccs3)on2)cc1OC	.	-0.3	.	2.6%	.	6	-0.5%
O=C(c1cncc(Br)c1)N1CCN(S(=O)(=O)c2ccc(Cl)cc2)CC1	5%	-0.1	-2	0.7%	-4.6	-4	.
COc1ccc(C(=O)Nc2ncc(C)s2)cc1S(=O)(=O)N1CCCC1	20%	1.2	18	0.2%	-0.3	-2	.
O=C(NC(=S)Nc1ccc(CN2CCOCC2)cc1)c1ccc2c(c1)OCCO2	?	-0.3	22	5.0%	3.9	4	-1.9%
CN(CC(=O)N1CCCC1)S(=O)(=O)c1cccc(Cl)c1	16%	1.1	15	-1.2%	-11	-12	.
O=C(NCC1CCCO1)C1CCCN(S(=O)(=O)c2ccc(Cl)cc2)C1 (configuration not stated)	11%	-1.4	-4	3.7%	1.7	12	0.7%
COCCNC(=O)C(c1ccc(C)o1)N(Cc1ccc(OC)cc1)C(=O)Cn1nnc2ccccc21 (configuration not stated)	-1%	-0.3	?	0.6%	1.5	7	0.7%
COc1ncc2nc(-c3ccc(Cl)cc3)c(=O)n(-c3ccccc3)c2n1	21%	.	.	5.6%	5.0	.	.
COc1ccc2nc(SCc3nc(N)nc(Nc4ccccc4)n3)[nH]c2c1	-2%	-0.9	24	-0.4%	-1.9	22	1.8%
CS(=O)(=O)N1CCN(c2ccccc2NC(=O)c2ccc(-c3ccc(Br)cc3)o2)CC1	-3%	1.5	5	13%[38.3 µM]	6.3	-3	32µM*
O=C(COC(=O)c1ccc[nH]c1=O)c1ccc(Cl)s1	1%	0.2	-9	0.2%	-0.6	44	-4.4%
Cn1c(-c2cccc(F)c2)nc2c1c(=O)[nH]c(=O)n2Cc1ccccc1	-9%	-0.3	-2	1.8%	-4.2	0	.
COC(=O)c1ccccc1NC(=S)NC(=O)c1cccc2ccccc12	0%	0.6	18	1.5%	-2.6	18	-5.4%
COCCN1C(=O)COc2ccccc2C1C(=O)Nc1c(C)cccc1C (configuration not stated)	.	-0.4	.	-0.8%	.	.	1.3%
CCOC(=O)N1CCN(C(=O)Cc2ccc(-n3c(=O)[nH]c4ccccc4c3=O)cc2)CC1	7%	2.9	5	-1.5%	-0.6	6	-30%
c1coc(-c2nn3c(Cn4nnc5ccccc54)nnc3s2)c1	45µM*	-0.2	2	-2.1%[38.3 µM]	3.3	-7	-2.2%
COc1cc(OC)c(NS(=O)(=O)c2cc(Br)cnc2N)cc1Cl	11%	-0.6	?	3.0%	-6.2	15	1.3%
COc1ccc(CC(=O)Nc2ccc(-c3noc(-c4cccc(OC)c4)n3)cc2)cc1	6%	-1.2	.	6.8%	2.1	-8	-22%
CC(C)C(=O)Nc1cc(S(=O)(=O)Nc2cccc(Cl)c2)ccc1Cl	18%	-1.0	-4	1.5%	0.6	9	-1.0%
CN(C)S(=O)(=O)c1cccc(NC(=S)NC(=O)C2CCCCC2)c1	-13%	-0.2	-2	0.2%	.	9	0.8%
Cc1ccc(C2N(C)c3ccccc3-c3nc4ccccc4n32)o1 (configuration not stated)	-4%	3.5	-6	3.5%[38.3 µM]	2.8	11	-17%
CCC(C)C(=O)Nc1c2c(nc3c1CCC3)CCCC2 (configuration not stated)	14%	1.4	-2	4.2%	3.6	-13	-0.8%
CCOc1ccc(NC(=O)CN(C)C(=O)C2CC2C)cc1OCC (configuration not stated)	.	-0.6	-16	0.5%	.	0	-1.2%
CCn1nc(C)c(NC(=O)c2cc(Br)ccc2Cl)c1C	5%	-0.5	4	6.3%[38.3 µM]	-0.6	11	0.7%
Cc1ccc(C2CC2c2n[nH]c(=S)n2-c2cccc(Cl)c2)cc1 (configuration not stated)	4%	4.5	0	1.5%	4.0	1	-0.7%
c1ccc2c(c1)ncn2CCC1CCCCC1	2%	0.7	-13	7.2%[38.3 µM]	-4.1	-5	0.8%
COc1ccc(CCN(C)C(=O)CN2C(=O)c3ccccc3S2(=O)=O)cc1OC	-1%	0.5	?	-0.3%	3.5	-4	-0.8%
CCOC(=O)N1CCC(NC(=O)CS(=O)(=O)Cc2nc(-c3cccc(OC)c3)oc2C)CC1	9%	0.6	?	3.1%[38.3 µM]	3.8	-12	-19%
COc1c(NC(C)=O)c2c(c([N+](=O)[O-])c1OC)C(=O)OC2	.	0.2	.	0.8%	.	7	2.3%
O=[N+]([O-])c1ccc(COc2cccc(CNc3ccc(Br)cc3)c2)cc1	22%	0.2	-2	3.9%	3.6	-1	-0.2%
